Screening data from PubChem BioAssay.
Anaer choline gr = growth inhibitors of anaerobic choline-fed gram-negatives, minimal medium, absorbance. calls only. Gram-negative bacterium anaerobic choline minimal medium; hits give low values; many inactives read as strong as hits in the columns shown. hit rate 0.2% among 55,000;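 active = growth z-score on choline under -2 at 7 or 20 h with little or no fall on glycerol, limits in tiers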;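 also: stock transfer was 300 nL into about 50 µL; the organism is E. coli; final concentration not given here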
Anaer choline gr early = second read-out of Anaer choline gr, no call of its own (marks repeat the call); z-score; measured here: choline growth z-score, timepoint 1;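 score of optical density at 7 h as mean of two plates; lower means less growth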
Starred values were filed as active, the others as inactive; i = inactive.

#	compound	Anaer choline gr early	Anaer choline gr
1	COc1ccc(C(Nc2cc(C)ccn2)c2cc(C)sc2NC(=O)c2ccccc2)cc1 (configuration not stated)	1.3	i
2	Cc1cccc(CNC(=O)C2CCN(C(=O)c3ccnc(-c4ccccc4)c3)CC2)c1	1.1	i
3	O=C(Nc1cc(F)ccc1F)c1n[nH]nc1Nc1ccccc1	1	i
4	CS(=O)(=O)N1CCC(c2noc(-c3cccc(F)c3)n2)CC1	0.53	i
5	Cc1ccc(CNC(=O)Cn2c3c(c(-c4ccccc4)cc2=O)CCCC3)cc1	0.97	i
6	Cc1cc(C)c2c(n1)sc1c(=O)n(CC(=O)Nc3cc(Cl)ccc3C)cnc12	-0.47	i
7	CC1CCN(S(=O)(=O)c2ccc(-c3nnc(C(=O)NCCCN4CCOCC4)o3)cc2)CC1	-1.4	i
8	CCc1nc(CN2C(=O)COc3cc(S(=O)(=O)N4CCCCC4CC)c(C)cc32)no1 (configuration not stated)	-0.51	i
9	Fc1ccc(-c2nc(-c3ccc(-n4ccnc4)nc3)no2)cc1	0.89	i
10	O=C(NCC1CCCO1)c1cc(N2CCCC2)n2nccc2n1 (configuration not stated)	-0.08	i
11	Cc1n[nH]c(C)c1S(=O)(=O)N1CCCN(c2nc3cccnc3s2)CC1	-0.21	i
12	Cc1cccc(-c2nn3c(=O)cc(N4CCN(S(=O)(=O)c5c(C)noc5C)CC4)nc3s2)c1	0.57	i
13	CC(C)NC(=O)N1CCCC(c2cccc(C(=O)NCc3ccccc3)c2)C1 (configuration not stated)	-0.27	i
14	c1ccc(Oc2nc3ccccc3n3cnnc23)cc1	0.73	i
15	COc1ccc(-c2nn3c(NC(C)c4ccccc4)cc(C)nc3c2C)cc1OC (configuration not stated)	0.5	i
16	CC(C)NS(=O)(=O)c1cc(C(=O)N2CCOCC2)cs1	-1.3	i
17	COC(=O)c1sccc1NC(=O)Cn1c(C)cc(C)c(-c2nc(-c3ccc(F)cc3)no2)c1=O	0.98	i
18	COc1cccc(N2CCN(C(=O)c3[nH]c(C)c(S(=O)(=O)N4CCOCC4)c3C)CC2)c1	-0.1	i
19	Cn1cc(S(=O)(=O)N2CCCC2)cc1C(=O)N1CCN(c2ccccn2)CC1	0.07	i
20	O=c1c(S(=O)(=O)c2ccc(F)c(Cl)c2)c[nH]c2c(F)c(Cl)ccc12	-1.1	i
21	CCOC(=O)C1=C(CN2CCn3cccc3C2C)NC(=O)NC1c1cccc(OC)c1OC (configuration not stated)	0.37	i
22	Cn1c(=O)c(-c2noc(CCC(=O)N3CCN(c4ccccc4)CC3)n2)nn(-c2ccccc2)c1=O	0.42	i
23	CCOC(=O)C1=C(CN2CCn3cccc3C2C)NC(=O)NC1c1ccc(OC(C)C)cc1 (configuration not stated)	0.12	i
24	Cc1oc(-c2ccccc2)nc1Cn1nnc(-c2nc(-c3ccccc3Cl)no2)c1C	1.2	i

Sorted by the number under Anaer choline gr early (rising): 5 from the list above
#	smiles	Anaer choline gr early
8	CCc1nc(CN2C(=O)COc3cc(S(=O)(=O)N4CCCCC4CC)c(C)cc32)no1 (configuration not stated)	-0.51
10	O=C(NCC1CCCO1)c1cc(N2CCCC2)n2nccc2n1 (configuration not stated)	-0.08
12	Cc1cccc(-c2nn3c(=O)cc(N4CCN(S(=O)(=O)c5c(C)noc5C)CC4)nc3s2)c1	0.57
9	Fc1ccc(-c2nc(-c3ccc(-n4ccnc4)nc3)no2)cc1	0.89
5	Cc1ccc(CNC(=O)Cn2c3c(c(-c4ccccc4)cc2=O)CCCC3)cc1	0.97

Carrying on:
#	compound	Anaer choline gr early	Anaer choline gr
25	Cc1noc(-c2ccccc2OCC(=O)Nc2c(C)n(C)n(-c3ccccc3)c2=O)n1	1.3	i
26	Nc1nc(NC2CC2)c2ncn(C3C=C[C@@H](CO)C3)c2n1 (some centres not stated)	-0.5	i
27	CC(C)NC(=O)N1CCCC(c2cccc(C(=O)NC(C)c3ccc(F)cc3)c2)C1 (configuration not stated)	0.48	i
28	COc1ccc(-c2noc(-c3cn(C)c4cc(N5CCCCC5)c(F)cc4c3=O)n2)cc1OC	0.39	i
29	O=C(CN1C(=O)C2CCCCN2c2ccc(C(=O)N3CCCCC3)cc21)NC1CCN(Cc2ccccc2)CC1 (configuration not stated)	0.07	i
30	O=C(NCc1nc2cccnc2n1Cc1ccccc1)c1ccccc1	0.7	i
31	CCOc1ccc(NC(=O)NCCn2c(C(F)(F)F)nc3ccccc32)cc1	0.45	i
32	CCOC(=O)C1CCN(C(=O)CCCc2nc3cccnc3n2Cc2ccc(F)cc2)CC1	0.65	i
33	CCOc1ccccc1NCc1nc2nc3c(c(=O)n2[nH]1)CCC3	-0.22	i
34	Cc1cc(SCC(=O)Nc2ccc(F)c(Cl)c2)nc2ccc(S(=O)(=O)N3CCCC3)cc12	-1.1	i
35	COc1ccc(Nc2cc(C(=O)NCCc3ccccc3)c3ccccc3n2)cc1OC	-1.3	i
36	O=c1n(Cc2cccc(F)c2)nc2c(S(=O)(=O)N3CCN(c4ccc(F)cc4)CC3)cccn12	-0.91	i
37	CCC(=O)N1CCCC1c1nc2ccccc2n1CCOc1ccccc1Cl (configuration not stated)	-0.75	i
38	O=C(NC1CCCC1)N1CCCN(c2ccc(=O)n(-c3ccccc3)n2)CC1	0.33	i
39	Cc1nc(-c2ccc(C)c(S(=O)(=O)NCc3ccc4c(c3)OCO4)c2)no1	-0.5	i
40	NC(=O)C1CCN(C(=O)c2ccc(Cn3c(=O)c4cccn4c4cccnc43)cc2)CC1	0.09	i
41	O=C(NCCCc1ccccc1)C1CCN(C(=O)N2CCOc3ccc(Cl)cc32)CC1	-2	i
42	NC(=O)c1cnc2sc3c(n2c1=O)CCCC3	-0.07	i
43	CCc1ccc(-c2[nH]ncc2CN2CCCC2c2cc(CC)no2)cc1 (configuration not stated)	-0.78	i
44	Cc1nn(S(C)(=O)=O)c(C)c1S(=O)(=O)N1CCOCC1	0.46	i
45	O=S(=O)(c1ccccc1)N1CCC(c2nc(-c3ccc4c(c3)OCO4)no2)CC1	0.65	i
46	CCN1CCN(CC2CCN(S(=O)(=O)c3ccc4c(c3)CCC4)CC2)CC1	0.36	i
47	O=C(NCCn1c(CCc2ccccc2)nc2cccnc21)c1ccccc1Br	0.93	i
48	O=C(Nc1ccccc1-c1ccc2ccccc2n1)c1ccc(F)cc1	0.93	i
49	CCS(=O)(=O)N1CCCN(C(=O)NC(C)(C)C)CC1	0.9	i
50	CCCNC(=O)c1ccc2c(=O)n(CC3CCCO3)c(SCc3ccccc3Cl)nc2c1 (configuration not stated)	0.27	i
51	CCCc1cc(C2CCCN2Cc2ccccc2OC(C)C)no1 (configuration not stated)	1.1	i
52	O=C(NC1CCCC1)c1cccc(Nc2ccc(-c3ccccc3)nn2)c1	0.18	i
53	Cc1c(Cl)cccc1NC(=O)CSc1nc(=O)n(Cc2ccncc2)c2c1CCC2	-0.7	i
54	CCC(=O)N1CCN(Cc2nc3cc(NC(C)=O)ccc3n2C)CC1	-0.25	i
55	Cc1nn(S(C)(=O)=O)c(C)c1S(=O)(=O)N1CCCC(C)C1 (configuration not stated)	0.05	i
56	Cc1ccc(S(=O)(=O)N(C)Cc2nc3cc(C(=O)N(C)C)ccc3n2C)cc1Cl	0.56	i
57	Cc1ccc(C(=O)NCc2nc(-c3ccc4c(c3)nnn4C)no2)cc1	0.37	i
58	CCn1c(SCC(=O)Nc2ccc(S(N)(=O)=O)cc2)nnc1-c1cc2ccccc2o1	-1.6	i
59	Cc1cc(C2CCCN2S(=O)(=O)c2ccc(C)c(C)c2)on1 (configuration not stated)	0.98	i
60	CC(C)(C)NCC(O)COc1ccccc1C1CCCC1 (configuration not stated)	-0.68	i
61	CC1(C)CC(=O)C2=C(C1)Nc1ccccc1N(C(=O)C1CC1)C2c1ccc(F)cc1 (configuration not stated)	0.31	i
62	O=c1c2ccc(Cl)cc2oc2cc(O)cc(O)c12	-0.03	i
63	O=C(O)/C(=C/c1c(C(=O)O)[nH]c2cc(Cl)cc(Cl)c12)c1ccccc1	0.13	i
64	Cc1ccc(C(=O)NC2CCCc3ccccc32)cc1-n1nnc2cccnc21 (configuration not stated)	-0.29	i
65	COc1cc(OC)c(NS(=O)(=O)c2cc(-c3nc(C)c(C)s3)sc2C)cc1Cl	-0.56	i
66	Cc1ccc(C(=O)Nc2ccc(SCc3cc(=O)n4c(ncn4C(C)C)n3)cc2)cc1	1.9	i
67	CCCN1CCN(C(=O)CN(c2cc(C)cc(C)c2)S(=O)(=O)c2c(C)nn(C)c2C)CC1	-0.65	i
68	CCCCn1c(SCc2nc(-c3ccc(Cl)cc3)no2)nc2cc3c(cc2c1=O)OCO3	1.7	i
69	CCOCCCNC(=O)N1c2ccccc2NC2=C(C(=O)CC(C)(C)C2)C1c1ccccc1 (configuration not stated)	0.97	i
70	O=C(c1nnc(-c2cc(S(=O)(=O)NCC3CCCO3)c[nH]2)o1)N1CCCC1 (configuration not stated)	1.5	i
71	CC(C)Cc1csc(-c2csc(S(=O)(=O)NCc3cc(F)cc(F)c3)c2)n1	0.51	i
72	COc1ccc(S(=O)(=O)N2CCc3c(c(COCc4ccccc4)nn3C)C2)cc1	-0.73	i
73	Cc1cccc(CNS(=O)(=O)c2c(C)sc(C)c2-c2n[nH]c(C)c2C)c1	-0.73	i
74	O=C(Cc1ccccc1)Nc1nc2ccc(Cl)cc2c2nc(-c3ccco3)nn12	-0.83	i
75	O=C(NCCN1CCCCC1)c1cc2n(n1)CCCN(Cc1cccc(F)c1)C2=O	0	i
76	Cc1nc(-c2ccc(Cl)c(S(=O)(=O)N3CCCC(C(=O)N4CCc5ccccc54)C3)c2)no1 (configuration not stated)	-0.5	i
77	Cc1ccc2oc(C(=O)Nc3ccc(F)cc3)cc(=O)c2c1	0.29	i
78	Cc1ccc2c(c1)OC=CC(C(=O)NCc1ccccc1)=C2	0.73	i
79	Cc1cc(C)cc(NC(=O)C2CCN(S(=O)(=O)c3c(C)[nH]c(C)c3C(=O)N3CCCC3)CC2)c1	-1.1	i
80	COCCn1c(CNC(=O)CCc2c(C)noc2C)nc2cccnc21	-2.5	i

Compound profiles, as listed above. Screens in order: Anaer choline gr early | Anaer choline gr
Cc1ccc2c(c1)OC=CC(C(=O)NCc1ccccc1)=C2 as listed: 0.73 | i
O=C(Cc1ccccc1)Nc1nc2ccc(Cl)cc2c2nc(-c3ccco3)nn12 as listed: -0.83 | i
Cc1cccc(CNS(=O)(=O)c2c(C)sc(C)c2-c2n[nH]c(C)c2C)c1 as listed: -0.73 | i
Cc1ccc2oc(C(=O)Nc3ccc(F)cc3)cc(=O)c2c1 as listed: 0.29 | i

(further entries)
#	compound	Anaer choline gr early	Anaer choline gr
81	CN(C)c1ccc(-c2noc(CCC3CCCC3)n2)cc1	-0.16	i
82	CCOC(=O)Cn1c(=O)c(-c2ccccc2NC(C)=O)nc2ccccc21	-0.45	i
83	Cc1nc2ccccc2c(=O)n1Cc1noc(/C=C/c2ccccc2Cl)n1	0.03	i
84	Cc1ccc(OC(=O)CSc2nc(-c3ccccc3)nc3cc(=O)[nH]n23)cc1	-1.6	i
85	COc1cccc(NC(=O)C2CCCN(c3ncnc4oc(C)c(C)c34)C2)c1 (configuration not stated)	-0.54	i
86	CCOC(=O)CSC1=NS(=O)(=O)c2cc(F)ccc2N1	-1.3	i
87	Cc1ccc(OCc2nc(-c3ccc(C(=O)N4CCN(c5ccccn5)CC4)cc3)oc2C)cc1	0.92	i
88	CCc1onc(C)c1C1CCCN1Cc1cn[nH]c1-c1ccc(F)cc1 (configuration not stated)	-0.64	i
89	Brc1ccc(-c2cc(-c3nc4c5ccccc5ncn4n3)[nH]n2)cc1	0.11	i
90	CNC(=O)c1ccc(CN2C(=O)CSc3ncccc32)cc1	0.64	i
91	CCN(c1nc2nc(C)cc(C)n2n1)S(=O)(=O)c1ccc(Cl)cc1	0.52	i
92	Cc1nc(-n2[nH]c(C)c(CCC(=O)Nc3ccc(F)cc3)c2=O)sc1C	0.72	i
93	CCC1Oc2ccc(Cl)cc2N(CC(=O)Nc2ccc3nc(NS(C)(=O)=O)sc3c2)C1=O (configuration not stated)	0.88	i
94	Cn1cc(C(=O)NCC2CC2)c(S(=O)(=O)N2CCSCC2)n1	-0.77	i
95	COc1ccc(-n2ccc(=O)c(-c3nc(-c4ccc(F)cc4)no3)n2)cc1	0.82	i
96	Cc1cccc(N2CCN(C(=O)c3ccc(Cn4c(=O)c5cccn5c5cccnc54)cc3)CC2C)c1 (configuration not stated)	-1.8	i
97	Cc1ccc2c(c1)Oc1ccc(S(=O)(=O)N3CCC(C)CC3)cc1C(=O)N2	1.1	i
98	Cc1nc(Oc2cccnc2)c2oc3ccccc3c2n1	-0.04	i
99	CC(=O)N1CCN(C)CC1	0.82	i
100	COc1cc(Nc2ncc(F)c(Nc3ccc4c(n3)NC(=O)C(C)(C)O4)n2)cc(OC)c1OC	0.5	i
101	O=C(Nc1ccccc1Cl)N1CCN(Cc2cc(=O)n3nc(-c4ccc(F)cc4)sc3n2)CC1	0.85	i
102	O=C(c1nnc(-c2ccc(S(=O)(=O)N3CCOCC3)cc2)o1)N1CCOCC1	-1.7	i
103	Cn1c(CNC(=O)C2CCC2)nc2c1CN(S(=O)(=O)c1cccs1)CC2	0.88	i
104	COc1ccc(-n2nc(C(=O)Nc3ccc(F)cc3Cl)c(=O)n(C)c2=O)cc1	-1.2	i
105	Cc1sc(-c2cc(C(F)(F)F)on2)cc1S(=O)(=O)Nc1ccccc1F	-0.66	i
106	COc1ccc(OCC(=O)Nc2cccc3nsnc23)cc1	3	i
107	CCOc1ccc(C2C3=C(CC(c4ccccc4)CC3=O)Nc3ncnn32)cc1OC (configuration not stated)	0.35	i
108	Cc1noc(C)c1C1CCCN1Cc1ccc(Cl)cc1 (configuration not stated)	-1.1	i
109	CCCCC[C@H](O)/C=C/[C@H]1C(=O)C[C@H](O)[C@@H]1C/C=C\CCCC(=O)NC(CO)CO	0.97	i
110	CC(C)(C)c1ccc(-c2nc(-c3ccc(NS(C)(=O)=O)cc3)no2)cc1	0.43	i
111	COc1cc(=O)n(-c2ccccc2)nc1C(=O)Nc1ccc(-c2nc3ccc(C)cc3s2)cc1	0.12	i

Some of the compounds tested. The share of hits here may be higher or lower than overall.
